Compound activity as filed in PubChem.
NPYLR7 ag – mosquito NPYLR7 agonism. HEK293T NPYLR7/Galpha15, GCaMP6s calcium fluorescence. activation, % at 10 µM. actives 0.15% (n = 270,000). AID 1259423; in the data active = activation above about 40%;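 note: 0% = vehicle and 100% = reference agonist at the receptor; some compounds past the cut are filed as inactive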
NPYLR7 ag max-min – further read-out of NPYLR7 ag, marked with its call; activation, %; measured here: Max-Min RFU normalised activation; some inactives read as strong as hits;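 span of the calcium signal over five minutes; 0% = vehicle and 100% = native peptide agonist; compound fluorescence can raise it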
* hit, by the source's call; & = joins results of further samples.

No.	canonical_smiles	NPYLR7 ag max-min	NPYLR7 ag
1	O=C1NC2(CCN(Cc3ccncc3)CC2)Nc2cccc(Cl)c21	16	2
2	O=C(O)c1cc(NC2CC2)ccn1	-6	-5
3	O=C(CN(CCCN1CCOCC1)S(=O)(=O)c1ccc(Cl)c([N+](=O)[O-])c1)N(Cc1ccccc1)Cc1ccco1	-2	-2
4	CCN(CC)C(=O)c1c(-c2ccccc2)c(-c2ccccc2)n[nH]c1=O	37	0
5	O=C(Nc1nnc(-c2cc3ccccc3o2)o1)c1ccc(Cl)s1	2	7
6	COc1cccc(-c2n[nH]c3c2CN(Cc2cccc(C(C)=O)c2)CC3)c1	9	10
7	c1ccc(-c2nnc(CSc3nnc4sc5ccccc5n34)o2)cc1	0	1
8	Cc1cc(Br)ccc1NC(=O)CN(C)C(=O)c1ccc(-c2ccc([N+](=O)[O-])cc2)o1	-2	5
9	COc1ccc(C2CC(=O)Nc3cc(O)c(C)cc32)cc1Cn1cccn1 (stereo not given)	-3	1
10	CC(c1ccc(-c2ccc3c(c2)OCCC3=O)cc1)N1CCOCC1 (stereo not given)	6	12
11	Cc1ccc(NC(=O)C2(C)CCN2C(=O)Cc2ccccc2Cl)cc1C (stereo not given)	4	7
12	CN(C)C(=O)c1cccnc1SCc1ccc(-c2csnn2)cc1	0	0
13	Cc1ccc(N2C(=O)/C(=C/c3ccc(Cl)cc3)C=C2c2ccccc2)cc1[N+](=O)[O-]	-11	0
14	COc1cccc(CN(C)Cc2nc3ccc(C)cc3[nH]2)c1O	19	27
15	COCC(=O)N1CCC(Oc2ccc(C(=O)N3CCCCO3)cc2)CC1	0	3
16	CN(C)CCn1c2c(c3ccccc31)CCCn1cnnc1-2	-1	1

Rewritten with each value named: 4 of the compounds above.
10) CC(c1ccc(-c2ccc3c(c2)OCCC3=O)cc1)N1CCOCC1 (stereo not given)
  NPYLR7 ag max-min = 6
  NPYLR7 ag = 12

11) Cc1ccc(NC(=O)C2(C)CCN2C(=O)Cc2ccccc2Cl)cc1C (stereo not given)
  NPYLR7 ag max-min = 4
  NPYLR7 ag = 7

12) CN(C)C(=O)c1cccnc1SCc1ccc(-c2csnn2)cc1
  NPYLR7 ag max-min = 0
  NPYLR7 ag = 0

13) Cc1ccc(N2C(=O)/C(=C/c3ccc(Cl)cc3)C=C2c2ccccc2)cc1[N+](=O)[O-]
  NPYLR7 ag max-min = -11
  NPYLR7 ag = 0

Remaining list, next part.
No.	canonical_smiles	NPYLR7 ag max-min	NPYLR7 ag
17	CC1=NC2=C(C(=O)CCC2)C(c2ccccc2)C1C#N (stereo not given)	3	6
18	COc1ccc(-c2cc(C(=O)N3CCN(c4ccccc4Cl)CC3)c(C)n2-c2ccc(C)cc2)cc1	19	9
19	COc1ccc(OC)c(-c2ccc(=O)n(CC(=O)NC3CCCCC3)n2)c1	13	16
20	O=C(c1cc(C2CC2)[nH]n1)N1C[C@H]2CC=CC[C@H]2C1	7&-1	11&-2
21	O=C(O)CN1C(=O)/C(=C/c2ccccc2)SC1=S	-9	-5
22	COc1ccc(CN(C)C2CCCN(CCc3ccccc3)C2)cc1O (stereo not given)	2	3
23	CCN(CC)S(=O)(=O)c1ccc(NN=C2CCSc3ccc(F)cc32)nc1	6	4
24	CCn1cc([N+](=O)[O-])c(C(=O)N2N=C3/C(=C/c4scnc4C)CCCC3C2c2scnc2C)n1 (stereo not given)	10	3
25	COc1cc([C@@H]2c3cc4c(cc3C(O[C@@H]3O[C@@H]5CO[C@@H](c6cccs6)OC5[C@H](O)[C@H]3O)C3COC(=O)[C@@H]32)OCO4)cc(OC)c1O (stereo not given in full)	-15	-6
26	C=CCn1ccnc1C(O)(CC(C)=O)C(F)(F)F (stereo not given)	3	10
27	O=c1oc2ccc(Cl)cc2cc1-c1csc(Nc2cccc(C(F)(F)F)c2)n1	-9	-5
28	Cc1cn2c(nc3c2c(=O)n(Cc2ccccc2)c(=O)n3C)[nH]1	2	-1
29	COCCN(Cc1c(-c2ccccc2)noc1N(C)C1CCCCC1)C(=O)c1ccccc1OC	10	-4
30	CC(C)NC(=O)CSc1nc(N)c(NC(=O)c2ccc(Cl)cc2)c(=O)[nH]1	0	1
31	Cc1cc(C)c2nc(-c3ccccn3)cc(C(=O)n3cccn3)c2c1	-16	-9
32	Cc1ccccc1Cn1c(=O)c2c(nc3n2CCN3Cc2ccccc2)n(C)c1=O	-3	4
33	N#Cc1cccc(NC(=O)C(c2ccccc2)N2CCCCC2=O)c1 (stereo not given)	4	6
34	COc1cc(-c2nc3ccc(Cl)cc3[nH]2)cc(OC)c1OC	4	10
35	CN(CC(O)COCC1COc2ccccc2O1)C1CCCCC1 (stereo not given)	-3	1
36	COc1ccc(CCN(C)S(=O)(=O)c2ccc(OC)c(N3CCN(S(=O)(=O)c4ccc(F)cc4)CC3)c2)cc1OC	14	26
37	CC(C)(C)c1ccc(OCC(O)Cn2nc(-c3ccc(F)cc3)oc2=O)cc1 (stereo not given)	8	15
38	O=C(NCCc1ccco1)C1CCCN(C2CCN(Cc3ccncc3)CC2)C1 (stereo not given)	1	4
39	CC(C)c1ccc(Nc2nccc3[nH]c(-c4ccco4)nc23)cc1	-10	-6
40	CC1=NC2=C(C(=O)CCC2)C(c2ccc(Cl)cc2)C1C(=O)OCCOc1ccccc1 (stereo not given)	-7	0
41	CC(=O)c1ccc(N2CCOCC2)c(-c2ccc3c(c2)OCO3)c1	7	6
42	Cc1nn(-c2ccccc2)c2c1P(=O)(N1CCCCC1)C(=C1N(C)c3ccccc3C1(C)C)C=N2 (stereo not given)	26	19
43	COc1ccc(OC)c(SCc2ccc(C(=O)N3C4CCC3CC(Oc3cccc(C#N)c3)C4)cc2)c1 (stereo not given)	3	17
44	COCCC1(C(=O)Nc2cc(CSC)ccn2)CCC1	3	5
45	Cc1cc(NCC2CN(CC(C)C)CCO2)c2ccccc2n1 (stereo not given)	1	6
46	COCCCN(CC(=O)N(CCc1c[nH]c2ccccc12)Cc1ccc(F)cc1)C(=O)c1cccc(Br)c1	6	-3
47	Cc1cc(-c2csc(CN3C(=O)CNC3=O)n2)cc(C)c1F	43	-4
48	CC1Cc2cc(S(N)(=O)=O)ccc2N1 (stereo not given)	9	-2
49	CCOC(C)c1noc(CN2CC(C)C(=O)Nc3ccccc32)n1 (stereo not given)	6	7
50	COCCn1c(=O)c2c(nc3n2CC(C)CN3c2ccc(Cl)cc2)n(C)c1=O (stereo not given)	1	9
51	COc1ccc(C)cc1-n1c(SCC(=O)O)nnc1-c1cccnc1	0	3
52	O=C(Nc1ccc(C(F)(F)F)cc1)Nc1ccc(N2CCc3ccccc3C2)c(C(=O)NCCc2ccccc2)c1	-14	-12
53	CC=CCn1c(=O)c2c(nc3n(CCO)c(C)c(C)n23)n(C)c1=O	8	15
54	COc1ccc(-n2c(-c3ccccc3)cc(C(=O)N(C)CCc3ccc(OC)c(OC)c3)c2C)c(OC)c1	9	-2
55	Cc1nn(C)c(NC(=O)c2cc(C(C)C)[nH]n2)c1C	6	18
56	CCN(Cc1cccc(C(=O)Nc2c(C)nn(C)c2C)c1)[C@H]1COC[C@@H]1O	22	39
57	COc1ccc(Br)cc1CN1CCN(CC2CC3C=CC2C3)CC1 (stereo not given)	3	3
58	O=C1C(=Cc2cc(Br)cs2)COc2ccccc21	0	0
59	CC(C)Cc1nc(N2CCCN(C(=O)c3ccco3)CC2)c2c(-c3cccc(Oc4ccccc4)c3)noc2n1	24	-1
60	CCCC12CN3CC(CCC)(CN(C1)C3c1cccs1)C2=O (stereo not given)	4	1
61	Cc1nc(-c2ccc(C(F)(F)F)cc2)nc(N2CCN(S(=O)(=O)c3ccc(Cl)c([N+](=O)[O-])c3)CC2)c1C(C)C	3	-1
62	Cc1cc(C(=O)N(Cc2ccccn2)c2nc3c(F)cccc3s2)n(C)n1	0	2
63	Cc1ccc(S(=O)(=O)N(Cc2nccn2Cc2cccc(F)c2)C2CCCCC2)cc1	7	1
64	O=C(Nc1ccc(N2CCN(C(=O)CCC3CCCC3)CC2)nc1)c1ccccc1F	-1	-3
65	O=C(COc1ccc(Cl)cc1)N1CCCC(OCc2ccccc2)C1 (stereo not given)	0	-7
66	Cc1cc(=O)[nH]c(-n2nc(C)cc2NC(=O)COc2ccc(F)cc2)n1	1	10
67	Cn1ccnc1N1CCN(C(=O)CC23CC4CC(CC(C4)C2)C3)CC1	9	3
68	CCCn1c(=O)c2c(ncn2C)n(CCC)c1=O	-15	-5
69	CC=CCn1c(SCCCC)nc2c1c(=O)[nH]c(=O)n2C	2	2
70	CCC(=O)Nc1ccc(Oc2ccccc2Cl)cc1	0	0
71	COc1ccc(OC)c(/C=C2N=C(/C=C/c3ccccc3OC)OC\2=O)c1	-2	1
72	O=C1N=c2ccccc2=C1N=Nc1nc(O)c(-c2c(O)[nH]c3ccccc23)s1	1	2

Later entries:
No.	canonical_smiles	NPYLR7 ag max-min	NPYLR7 ag
73	Cc1nc(SCCO)c2c3c(sc2n1)CCCC3	13	-1
74	CC1CCC2C(=O)N(C)C(=O)C2C1C(=O)N(C)CC1CCCCC1 (stereo not given)	9	14
75	CCC12CC3CC(C1)CC(P(NC(=O)c1ccccc1)NC(=O)c1ccccc1)(C3)C2	11	4
76	COc1ccc(N=Cc2nc(-c3ccc(Br)cc3)oc2O)c([N+](=O)[O-])c1	5	-1
77	O=[N+]([O-])c1cccc(CN2CCCn3cccc3C2c2cccc(F)c2)c1 (stereo not given)	8	-10
78	CC(=O)Nc1ccc(-c2ccc(C(C)N3CCOCC3)cc2)cn1 (stereo not given)	-5	-4
79	Cc1nc(CCNC(=O)c2cn(Cc3ccc(F)cc3)nn2)nc2c1CCCC2	-1	1
80	COc1ccccc1-c1cc(C(=O)N(CCC#N)Cc2cccnc2)n2nc(-c3ccccc3)cc2n1	26	18
81	CCNC(=O)c1ccc(-c2cccnc2OCC)s1	-3	-1
82	Cc1ncsc1CCOC(=O)C12CC3CC(CC(C)(C3)C1)C2	0	1
83	Cc1cc(C)cc(Nc2nnc(Cc3ccccc3)c(=O)[nH]2)c1	-2	-2
84	Cc1cc(OC(=O)c2cccc3ccccc23)c([N+](=O)[O-])c(=O)[nH]1	-1	-1
85	CCCOC1CCCN(Cc2nc(-c3ccc(C(=O)OC)cc3)no2)C1 (stereo not given)	-7	-4
86	CCCCCCC1C(C#N)C(=N)SC(=N)C1C#N (stereo not given)	14	14
87	FC(F)(F)c1ccc(C2c3cccn3CCCN2Cc2cccc(Cl)c2)cc1 (stereo not given)	5	8
88	CCCCCCNC(=O)c1cc(-c2ccccc2)nc2cc(C(C)(C)C)nn12	23	19
89	COc1ccc(Cn2ccnc2-c2ccccc2OCCO)cc1	-3	-2
90	Fc1ccc(N2CCCN(Cc3cnc(-c4ccccn4)nc3)CC2)cc1	4	6
91	COc1cc(C(=O)Nc2cccc(-c3cccc(-c4ccc5c(c4)OCCO5)n3)c2)cc(OC)c1OC	0	4
92	O=c1oc2cc(OCc3cc(=O)n4ccsc4n3)ccc2c2c1CCCCC2	6	9
93	COc1ccccc1-n1c(CNC(=O)c2ccc(S(=O)(=O)N3CCCC3)cc2)nnc1SCC(=O)Nc1nccs1	13	10
94	CC(=O)Nc1ccc(SCC(=O)N2CCN(c3ccccc3)CC2)nn1	0	0
95	O=C(Nc1ccc(C(F)(F)F)cc1)N1CCN(c2nc(-c3ccco3)nc3cc(Cl)ccc23)CC1	16	6
96	Cc1cc(NC(=O)C(C)Oc2ccc3c(=O)c(-c4ccccc4)c(C)oc3c2)no1 (stereo not given)	2	5
97	CC(C)COC1=CC(C/C=C/CC2C=C(OCC(C)C)CCC2=O)C(=O)CC1 (stereo not given)	3	0
98	CC1=C(C(=O)OCCc2ccccc2)C(c2ccc(Cl)cc2)NC(=O)N1C (stereo not given)	-12	-8
99	CCCCn1c(N)c(N(Cc2ccco2)C(=O)Cn2[nH]c(=O)ccc2=O)c(=O)[nH]c1=O	8	4
100	O=C(CCCSc1nnc(Cc2ccccc2)n1-c1ccc(Cl)c(Cl)c1)N1CCN(c2cccc(Cl)c2)CC1	11	-2
101	COc1cccc(-c2cccc(-c3cccc(NC(=O)C(Cl)Cl)c3)n2)c1	-4	-4
102	CN(Cc1cc(-c2ccccc2)n[nH]1)C(=O)c1cn(CC2COc3ccccc3O2)nn1 (stereo not given)	0	1
103	O=C(Nc1nc2c(s1)CCC2)c1ccc(Br)cc1	3	3
104	O=C1C(=Cc2c(NCCCO)nc3ccccn3c2=O)SC(=S)N1CCc1ccccc1	6	7

Full records as entered above.
O=C(CCCSc1nnc(Cc2ccccc2)n1-c1ccc(Cl)c(Cl)c1)N1CCN(c2cccc(Cl)c2)CC1 in the list: NPYLR7 ag max-min: 11; NPYLR7 ag: -2
O=C1C(=Cc2c(NCCCO)nc3ccccn3c2=O)SC(=S)N1CCc1ccccc1 in the list: NPYLR7 ag max-min: 6; NPYLR7 ag: 7
O=C(Nc1nc2c(s1)CCC2)c1ccc(Br)cc1 in the list: NPYLR7 ag max-min: 3; NPYLR7 ag: 3

Carrying on:
No.	canonical_smiles	NPYLR7 ag max-min	NPYLR7 ag
105	Cc1ccc(-n2c(C)c(C)n3c4c(=O)n(CC(=O)C(C)(C)C)c(=O)n(C)c4nc23)c(C)c1	5	6
106	CNc1nc2cnc(Nc3ccc(F)c(Cl)c3)cc2n1-c1ccccc1	-3	8
107	Cn1cc(C(=O)N2CCN(CC(=O)N3CCCCCC3)CC2)c2nn(-c3ccccc3)c(=O)c-2c1	-11	-4
108	NS(=O)(=O)c1cc2c(cc1Cl)NC(C(Cl)Cl)NS2(=O)=O (stereo not given)	-15&-6	-9&0
109	CN1C(=O)C2(CCN(C(=O)CCCn3ccnc3)CC2)c2ccccc21	-7	-6
110	CCOC(=O)C1CCCN(C(=O)c2cc3ccsc3n2CCCc2ccccc2)C1 (stereo not given)	11	5
111	CCN(CC)CCCNC(=O)c1cc2c(s1)CSC2	12	12
112	CN1CCCC2(CC1)CCN(C(=O)c1cc3ccccc3n(C)c1=O)CC2	-4	0
113	COc1cccc(C(C2Sc3nc(-c4ccco4)nn3C2=O)N2CCC(C(N)=O)CC2)c1 (stereo not given)	4	5
114	CC(C)(C)OC(=O)N1CCN(c2cc(-c3ccccc3)nc3ncnn23)CC1	1	6

A portion of the library; count on the stated rates, not on these rows.
